Compound activity (PubChem)
PrP UTR inh: inhibition of PrP 5' UTR reporter expression; cell-based PrP 5' UTR mRNA reporter, plate reader; inhibition, % (concentration not given with the values); 340,000 tested, 0.35% active;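 active means every replicate at 50% or more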;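 further: 0 = median of the neutral control wells; tested in H4 reporter cells; numbers are from one replicate; inactives centre near -14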
Mtb hypoxia rep: PubChem AID 1159583 | M. tuberculosis hypoxia-regulated fluorescent reporter, fluorescence | fluorescence inhibition, % (concentration not given with the values) | 300,000 tested, 0.1% active;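 active means 35 to 45% if threefold the growth effect, above 45% if 1.5-fold the growth effect; inactive means the rest, general growth blockers included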;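 further: wells of about 50 µL received 100 nL stock; 0% = vehicle wells and 100% = reference inhibitor wells; whole bacteria with a GFP reporter of the hypoxia response; strong numbers were not always called active; many hits fall short of the cut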
RN4220 kill: growth inhibition of S. aureus RN4220, primary screen, OD600. 16 h. inhibition, % (concentration not given with the values). 330,000 tested, 0.33% active;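 active means z-score of -3 or lower and OD600 up to 0.18 on both plates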;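 further: plate controls were untreated cells for no effect and reference antibiotic for full effect; stock transfer was 100 nL into about 80 µL; one replicate is shown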
Sa ugtP lethal: growth inhibition of ugtP-null S. aureus, primary screen, RN4220 ugtP deletion, OD600. 16 h; some inactives read as strong as hits. growth inhibition, % (no concentration beside the values). 330,000 tested, 0.54% active. AID 1259309, 2017;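 active means z-score under -3 and OD600 up to 0.15 on both plates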;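 further: plate controls were untreated wells for no effect and antibiotic for full effect; wells of about 80 µL received 100 nL stock; the first replicate is given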
Bead autofluor: counter-screen for toxin protease inhibitors: compound fluorescence. AID 624483. 360,000 tested, 3.1% active. fluorescence intensity (no concentration beside the values). compound autofluorescence counterscreen, microsphere flow cytometry; hits give high values;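 active means at least 3 SD above the mean of all compounds, about 16000 in these data; inconclusive means too few beads counted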;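 further: 100 nL of 1 mM stock went into each well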
BJeLR viability: MLPCN primary cell-based screen for lethality selective to Ras in HRASV12 cells. BJeLR (HRASV12) viability, CellTiter-Glo ATP luminescence, 48 h; reference of the scale not given here. inhibition, % (no concentration beside the values). 300,000 tested, 0.17% active. AID 1554, 2009;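 active means replicate mean above 50%; inconclusive means above 50% but judged a plate artefact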;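 further: 50 nL library stock added to about 25 µL; numbers are from one replicate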
Mtb hypoxia rep growth: also measured in Mtb hypoxia rep; calls as there; growth inhibition, %; measured here: M. tuberculosis growth (absorbance);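 0% = vehicle and 100% = reference antibiotic; read after six days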
Starred values were filed as active, the others as inactive; ? = inconclusive; / = not tested or not shown; & = joins results of further samples.

SMILES	PrP UTR inh	Mtb hypoxia rep	Mtb hypoxia rep growth	RN4220 kill	Sa ugtP lethal	Bead autofluor	BJeLR viability
COc1ccc(N=C2SC(CC(=O)Nc3ccc(OC)cc3OC)C(=O)N2C)cc1 (stereo not drawn)	-43.5	5.4	1.5	3.3	0.3	20859*	9.1
CCN1C(=O)C(=O)N(CC(=O)N(C)CC(=O)Nc2ccccc2Cl)C1=O	-13.7	3.8	7.4	3.6	4.5	?	-1.4
C(=N\Nc1nncn1/N=C/c1ccco1)/c1ccco1	-32.5	/	/	/	/	4882	5.4
O=C(Nc1cccc(F)c1)C1CCN(C(=O)c2ccccc2Cl)CC1	-9.9	9.1	-0.4	6.3	3.0	4109	7.7
Cc1cc(C(=O)Nc2cccc([N+](=O)[O-])c2C)cs1	-8.2	5.2	2.4	2.0	-0.6	5573	-17.4
COc1ccc(Cl)cc1Nc1nc(C)nc2c1nnn2Cc1ccccc1	-26.2	-3.7	-3.5	0.7	9.9	3398	0.1
CCC(=O)/C=C1/Sc2ccc(OC)cc2N1CCO	-16.1	2.7	-2.3	4.4	6.7	5619	-2.6
Nc1nnc(CC(=O)NN=Cc2ccc(-c3ccc(Cl)cc3Cl)o2)s1	/	-3.0	-4.0	0.9	2.3	/	/
Cc1cccc(NC(=O)CN2CCN(C(=O)C3CCC3)CC2)c1C	-22.6	24.8	12.6	-0.6	1.7	3843	/
Oc1c(Br)cc(Br)cc1C=Nc1cccnc1	-16.9	/	/	/	/	3939	-6.6
Cc1sc2ncnc(Sc3nnnn3-c3ccc(Cl)cc3)c2c1C	-2.3	2.3	-2.4	6.4	7.8	4201	3.2
C/C(=N\NC(=O)c1ccccc1C)c1ccc(N2CCOCC2)cc1	-21.6	/	/	/	/	3937	4.0
CCC(c1nnnn1C1CCCC1)N1CCN(C(=O)c2ccco2)CC1 (stereo not drawn)	-12.9	/	/	5.3	4.7	3726	7.4
O=C1C=C(c2ccccc2)CC(c2ccc(Cl)cc2)C1 (stereo not drawn)	/	6.2	5.8	-2.8	-11.1	/	/
CON=Cc1ccc(N2CCN(C(=O)c3cccc(C(F)(F)F)c3)CC2)c([N+](=O)[O-])c1	/	3.1	3.1	10.9	-9.1	/	/
CCc1ccc(/C=N/Nc2nn[nH]n2)cc1	-10.7	/	/	/	/	4092	-6.7
CCC1CCCCN1S(=O)(=O)c1ccc(NC(=O)c2snnc2C)cc1 (stereo not drawn)	-13.4	1.3	-2.7	12.6	8.0	4347	1.3
NC(=O)C1CCC(NC(=O)OCc2ccccc2)CC1 (stereo not drawn)	-16.4	/	/	7.5	-3.3	2594	1.5
CC1CCCCC1NC(=O)c1cccc(S(=O)(=O)N2CCN(Cc3ccccc3)CC2)c1 (stereo not drawn)	-13.2	-6.3	-4.4	2.7	3.3	5149	10.1
COC(=O)c1ccc(Cn2nc(-c3cc(C)ccc3C)ccc2=O)cc1	-20.9	-2.0	-0.6	-1.1	6.3	4043	7.4
Cc1ccc(OCC(O)Cn2c(N3CCOCC3)nc3c2c(=O)[nH]c(=O)n3C)cc1 (stereo not drawn)	-23.4	/	/	1.4	1.8	4543	4.5
Cc1ccc(C)c(S(=O)(=O)N2C(=S)NC(=O)C2CC(C)C)c1 (stereo not drawn)	-0.9	/	/	12.2	-4.0	2702	-3.3
NC(=O)[C@@H]1CCCN1Cc1nc(-c2ccc(C(F)(F)F)cc2)no1	-23.9	7.1	-1.9	4.6	11.9	2555	10.8
CCOC(=O)C1=C(C)N[C@@]2(O)c3ccccc3C(=O)[C@@]12O	-17.3	/	/	1.4	6.4	4130	-8.8
O=C(O)CCCC(=O)Nc1ccc(S(=O)(=O)Nc2nccs2)cc1	-7.8	7.8	15.2	3.8	12.3	3857	2.3
O=S(=O)(c1ccc(Cl)cc1)N1CN(CC2CCCO2)c2nc3ccccc3nc21 (stereo not drawn)	-24.2	5.3	7.1	4.3	3.9	5424	5.1
Oc1nc(Nc2ccccc2)sc1/C=C1\C=Nc2ccccc21	/	11.6	8.8	-4.3	-11.6	4606	-0.9
O=C(OCC(=O)N1CCOCC1)C(c1ccccc1)c1ccccc1	-3.7	-6.6	-2.8	19.9	18.0	2910	-1.8
O=C(COC(=O)c1ccc2c(c1[N+](=O)[O-])C(=O)c1ccccc1C2=O)NC1CC1	-4.1	11.1	4.9	42.6	20.7	3755	/
CCOc1cccc2sc(N(CCN(CC)CC)C(=O)c3ccc(S(=O)(=O)N4CCCC4)cc3)nc12	-21.0	3.0	12.2	2.3	12.7	5154	1.6
CC(C)(C)NS(=O)(=O)c1ccc(NC(=O)C2CC(=O)N(CCc3ccc(F)cc3)C2)cc1 (stereo not drawn)	-15.2	13.2	5.3	5.5	0.5	6271	-3.8
CCCn1nc(C(=O)NCC(C)(C)N2CCOCC2)c2ccccc2c1=O	-5.5	/	/	-2.0	7.0	4828	2.2
Cc1ccc2c([N+](=O)[O-])cccc2n1	-11.9	4.2	5.8	2.3	0.6	2040	-8.3
Cc1c(N=C/C=C2/N(C)c3ccccc3C2(C)C)c(=O)n(-c2ccccc2)n1C	-16.6&0.6	7.9	12.1	3.4&4.1	2.5&-3.5	3415&4368	1.3
O=C(c1c(Cl)nc2sccn12)N(C(=O)c1c(Cl)nc2sccn12)c1ccc(Cl)cn1	-75.2	14.0	7.0	2.9	11.4	5806	-7.2
COc1cccc(N=Nc2c(O)[nH]c(=S)[nH]c2=O)c1	-38.5	16.1	18.3	7.2	5.0	4825	-4.5
Cc1cc(Cl)c(OCCn2ccnc2)c(Br)c1	-0.5	15.1	4.2	4.7	0.1	3866	6.9
COc1ccc(CNC(=O)C2CCCN(c3ncnc4c3nc3n4CCCCC3)C2)cc1 (stereo not drawn)	-6.1	6.0	14.6	3.1	2.9	5812	-18.2
Cc1ccc(CS(=O)Cc2ccc(C(=O)NCC(C)c3ccccc3)o2)cc1 (stereo not drawn)	-10.2	-3.7	5.7	3.2	5.8	3133	1.1
O=C(/C=C/NCc1cccnc1)c1ccc(Br)cc1	-58.1	-11.3	-0.7	2.5	1.1	3540	-3.6

The last three entries of the section above open the next one.
SMILES	PrP UTR inh	Mtb hypoxia rep	Mtb hypoxia rep growth	RN4220 kill	Sa ugtP lethal	Bead autofluor	BJeLR viability
COc1ccc(CNC(=O)C2CCCN(c3ncnc4c3nc3n4CCCCC3)C2)cc1 (stereo not drawn)	-6.1	6.0	14.6	3.1	2.9	5812	-18.2
Cc1ccc(CS(=O)Cc2ccc(C(=O)NCC(C)c3ccccc3)o2)cc1 (stereo not drawn)	-10.2	-3.7	5.7	3.2	5.8	3133	1.1
O=C(/C=C/NCc1cccnc1)c1ccc(Br)cc1	-58.1	-11.3	-0.7	2.5	1.1	3540	-3.6
N#C/C(=C\c1ccccc1C(F)(F)F)C(=O)Nc1ccccc1	-38.7	-2.1	1.8	-5.0	1.5	3514	6.3
COC(=O)c1ccc(C(O)C(C)C(=O)CC(=O)OC(C)(C)C)cc1 (stereo not drawn)	/	2.4	4.0	4.7	-3.9	/	/
Cn1c(=O)c2c(SCC(=O)Nc3nccs3)nc(C3CC3)nc2n(C)c1=O	-8.7	15.5	11.6	4.7	2.4	4117	1.9
O=C(CN1C(=O)NC2(CCc3ccccc32)C1=O)c1c[nH]c2ccccc12 (stereo not drawn)	-9.9	-10.0	0.5	-0.7	-3.3	4194	4.4
Cc1c(NC(=O)c2cccnc2C(=O)O)cccc1C(=O)O	-4.4	-1.7	0.4	1.3	-1.4	2469	3.9
C#CCCOC(=O)N1C2=NC(C(=O)OC)=C(C(=O)OC)C3N(C)c4ccccc4[C@]23CC1C(=O)OC (stereo partly drawn)	/	5.9	11.4	4.2	-1.3	/	/
COC(=O)c1sccc1NC(=O)C1CC1	-9.0	5.1	17.4	-2.7	-2.5	6140	-0.7
CC(=O)N(c1ccccc1)c1nc(/C=C/C(=O)Nc2c(C)cc(C)cc2C)cs1	-20.2	6.7	3.0	-0.3	-1.4	2784	19.3
Cc1nnc(N(Cc2ccco2)C(=O)c2ccno2)s1	-22.4	/	/	4.2	2.4	?	8.6
Cc1cccc(N=C(NO)c2nonc2N)c1	-4.7	17.4	5.6	6.9	12.1	2039	9.1
COc1ccc(CC(=O)NCc2nc(-c3ccccc3)no2)cc1	-15.0	11.5	11.3	4.8	-7.0	3864	-5.2
COc1ccc(NC(=O)CC2C(=O)N(CCc3ccccc3)C(=S)N2Cc2cccnc2)cc1 (stereo not drawn)	-17.6	-1.3	-3.1	-3.1	-13.0	20810*	1.2
OCCNc1nc(-c2ccccc2)nc2c1oc1ccccc12	-14.0	14.6	3.5	1.5	-20.1	5628	-4.5
COc1ccc(-n2ncc3c(N4CCc5ccccc54)ncnc32)cc1	-174.9	2.1	5.6	2.2	-6.5	22442*	-0.9
COc1ccc(CCNC(=O)CC(c2ccccc2)c2cc(C)ccc2O)cc1OC (stereo not drawn)	2.7	-4.0	3.2	-0.2	-6.7	3493	10.2
CC12CCC(O)CC1=CCC1C2CCC2(C)C3=NN=CC3CC12 (stereo not drawn)	-14.2	4.2	10.3	2.2	17.8	3788	/
Cc1ccccc1OCC1Cn2c(nc3c2c(=O)[nH]c(=O)n3C)O1 (stereo not drawn)	-18.0	7.5	14.2	-1.4	-7.9	5848	6.5
COc1ccc(NC(=S)N2CCCCCC2)cc1OC	-31.0	5.0	0.2	2.4	2.8	4338	2.4
CCOc1ccc(NC(=O)CN(C)C(=O)c2cccnc2SC)cc1OCC	-20.2	2.1	9.7	-2.4	2.3	?	-2.5

A few values from the list:
`N#C/C(=C\c1ccccc1C(F)(F)F)C(=O)Nc1ccccc1` @ Bead autofluor: 3514
`CCN1C(=O)C(=O)N(CC(=O)N(C)CC(=O)Nc2ccccc2Cl)C1=O` @ BJeLR viability: -1.4
`CCOc1ccc(NC(=O)CN(C)C(=O)c2cccnc2SC)cc1OCC` @ RN4220 kill: -2.4

Reformatted as comma-separated lines: part of the list above
mol,PrP UTR inh,Mtb hypoxia rep,Mtb hypoxia rep growth,RN4220 kill,Sa ugtP lethal,Bead autofluor,BJeLR viability
Cc1c(NC(=O)c2cccnc2C(=O)O)cccc1C(=O)O,-4.4,-1.7,0.4,1.3,-1.4,2469,3.9
COC(=O)c1ccc(C(O)C(C)C(=O)CC(=O)OC(C)(C)C)cc1 (stereo not drawn),/,2.4,4.0,4.7,-3.9,/,/
O=C(CN1C(=O)NC2(CCc3ccccc32)C1=O)c1c[nH]c2ccccc12 (stereo not drawn),-9.9,-10.0,0.5,-0.7,-3.3,4194,4.4
Cc1ccccc1OCC1Cn2c(nc3c2c(=O)[nH]c(=O)n3C)O1 (stereo not drawn),-18.0,7.5,14.2,-1.4,-7.9,5848,6.5

The order is random, and some 4% of all compounds hit somewhere here.
